Screens deposited in PubChem BioAssay by National Center for Advancing Translational Sciences (NCATS).
Rango-impB inh: Rango-importin beta binding inhibition. Q14974. Rango CFP/YFP FRET sensor + importin beta, 45 min. 340,000 compounds, 0.031% hits. Potency, µM (titrated, usually from 92.2 µM), for inactives: top-dose inhibition of complex formation; active = rising FRET ratio curve, often small or poorly fitted; inconclusive = mostly compound fluorescence or quenching in the first reads; inactive = flat curves in all reads;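 further: potency means the concentration at half of the fitted maximal effect; 0% = DMSO wells and 100% = buffer wells lacking importin beta; nearly all actives have a fitted effect of over 15% in size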
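FRET biosensor Rango (snurportin 1 IBB between N-terminal EYFP and C-terminal Cerulean), 50 nM in PBS/1 mM DTT/0.02% Tween-20/0.1% BSA, preincubated 5 min RT with compound; 0.125 microM importin beta added, 45 min RT, CFP/YFP FRET ratio read.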
miR-21 FLuc: miR-21 reporter, rising signal. Potency, µM (titrated, usually from 38.3 µM), without a hit: at the highest dose reporter change, positive = more light. HeLa miR-21 FLuc reporter, luciferase, 48 h. AID 2288. 340,000 tested, under 10 active; active = well fitted rising curve with a large enough effect; inconclusive = small, poorly fitted or top-dose-only effect; inactive = no such curve, though single readings can be large or run the other way;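 further: % of control where 0% means no effect; miR-21 action dims this reporter so a rising signal means less miR-21 action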
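Luminescence from a firefly luciferase reporter carrying a miR-21 binding site downstream, stably expressed under a CMV promoter in HeLa cells that make miR-21 endogenously, reports miRNA modulation after 48 h compound exposure up to approximately 40uM final.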
GLA inh pH 4.5: inhibitors of human alpha-galactosidase A at pH 4.5; purified enzyme, 4-MU-alpha-Gal fluorescence, pH 4.5; P06280; activity change, negative = inhibition, % at 105 µM; 230,000 tested, under 10 active; inconclusive = small, poorly fitted or top-dose-only inhibition, or a rising curve; inactive = flat fitted curve, though single readings scatter; no compound was filed as active;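 further: 0% = full activity with enzyme and -100% = basal without enzyme; dose as in the result columns while the protocol names 77 µM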
Target sequence (P06280 whole entry, looked up): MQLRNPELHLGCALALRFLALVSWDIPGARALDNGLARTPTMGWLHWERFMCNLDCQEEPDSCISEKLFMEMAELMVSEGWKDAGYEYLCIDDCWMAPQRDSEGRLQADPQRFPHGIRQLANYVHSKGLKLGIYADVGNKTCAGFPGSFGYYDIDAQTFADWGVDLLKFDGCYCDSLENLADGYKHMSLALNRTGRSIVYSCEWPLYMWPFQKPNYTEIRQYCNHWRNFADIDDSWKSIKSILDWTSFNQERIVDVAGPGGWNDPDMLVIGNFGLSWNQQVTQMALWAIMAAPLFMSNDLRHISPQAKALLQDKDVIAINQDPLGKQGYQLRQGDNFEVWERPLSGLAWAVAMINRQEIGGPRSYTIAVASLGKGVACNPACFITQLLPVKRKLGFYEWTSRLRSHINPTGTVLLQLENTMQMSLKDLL
Rango dissoc inh: inhibitors of RanGTP-induced Rango-importin beta complex dissociation | O95149+P62826 | Biochemical FRET Rango-importin beta, RanGTP-induced dissociation | Potency, µM (doses to about 46.1 µM), without a hit: at the highest dose activity change, negative = inhibition | 340,000 compounds, 0.071% hits; active means falling FRET ratio curve, often poorly fitted, with flat reads before Ran was added; inconclusive means other falling curves, or compound fluorescence or quenching; inactive means flat or rising ratio curve;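 further: potency means the concentration at half of the fitted maximal effect; % of control where 0% means no effect; nearly all actives have a fitted effect of over 45% in size; -100% = wells without RanGTP and RCC1; the record marks most hits as doubtful in a second field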
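FRET read at 45 min, room temperature: inhibitors block the CFP/YFP signal rise when RanGTP (0.6 uM Ran, 2 mM GTP, 0.2 uM RCC1) frees Rango (0.1 uM) from importin beta (0.25 uM). Pre-read after 5 min compound exposure flags interference.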
Numbers without * were called inactive; u = inconclusive; x = no result given; & = joins results of further samples; [ ] = remark or other dose. This is a subset. The share of hits here may be higher or lower than overall.

no.	SMILES	Rango-impB inh	miR-21 FLuc
1	CCOC(=O)C1CCN(C(=O)Nc2ccc3c(c2)nc(C)n3C)CC1	2.6%	-30.2%
2	Cc1nc(C)c(-c2csc(Nc3cccc(O)c3)n2)s1	0.0%	1.0%
3	COc1ccc(CNC(=O)c2cc(SC)ccc2Cl)cc1OC	-1.5%	8.2%
4	COc1ccc(Cl)cc1NC(=O)/C=C/C(=O)O	-2.5%	-1.7%
5	O=C(COC(=O)c1ccccc1NC(=O)c1ccco1)NCC1CCCCC1	-4.4%	-4.1%
6	CC1(CCc2ccccc2)NC(=O)N(CC(=O)Nc2c(F)cccc2F)C1=O (centres undefined)	-1.5%	x
7	CC[C@]12c3[nH]c4ccccc4c3CCN1C(=O)C(CC(=O)NCCN1CCOCC1)C[C@@H]2C(=O)N1CCN(C(=O)c2ccco2)CC1 (some centres undefined)	4.3%	x
8	CCCCCNC(=O)c1cn(CC)c2cc(N3CCN(C)CC3)c(F)cc2c1=O	4.4%	-7.2%
9	Cc1cc(Cl)c(OCCOCCN2CCN(C)CC2)c(Br)c1	-1.0%	0.4%
10	Cc1ccc(C(=O)Nc2nc3n(n2)C(c2ccccc2)CC(=O)N3)cc1 (centres undefined)	2.7%	2.2%

no.	GLA inh pH 4.5	Rango dissoc inh
1	-2.7	10.7%
2	-3.8	2.0%
3	6.2	-2.7%
4	1.2	1.3%
5	6.2	1.7%
6	x	-1.0%
7	x	-18.8%
8	x	1.0%
9	x	-9.8%
10	1.0	15.1%

Laid out differently: two of the compounds above.
5: O=C(COC(=O)c1ccccc1NC(=O)c1ccco1)NCC1CCCCC1
8: CCCCCNC(=O)c1cn(CC)c2cc(N3CCN(C)CC3)c(F)cc2c1=O

Compound	5	8
Rango-impB inh	-4.4%	4.4%
miR-21 FLuc	-4.1%	-7.2%
GLA inh pH 4.5	6.2	x
Rango dissoc inh	1.7%	1.0%

Other entries.
no.	SMILES	Rango-impB inh	miR-21 FLuc
11	CN(C)C(=O)CSc1nnc(-c2ccco2)n1-c1ccccc1	0.4%	x
12	COC(=O)C(Cc1c[nH]c2ccccc12)NC(=O)C1CC1 (centres undefined)	-3.3%	1.6%
13	N#CCc1cccnc1Sc1ccc(Cl)cc1	1.5%	x
14	CC1(C)CC(=O)C2=C(C1)N(Cc1ccco1)C(=O)C2(NC(=O)C1CCCCC1)C(F)(F)F (centres undefined)	1.4%	-6.6%
15	Cc1nn(C)c(C)c1/C=N/NC(=O)c1csc2ccccc12	0.5%	-17.8%
16	O=C(COC(=O)c1ccccn1)NC(=O)c1ccccc1	-1.2%	x
17	Cc1ccc2[nH]c3c(=O)n(CCN4CCNCC4)cnc3c2c1	-0.5%	-0.7%
18	Cc1ccc(Cn2c(N3CCN(CCO)CC3)nc3c2c(=O)n(C)c(=O)n3C)cc1	0.8%	3.0%
19	NC1=NC(=O)NC1(c1ccccc1)c1ccccc1	-0.4%	x
20	FC(F)(F)c1cc(Cl)c2nnc(C(F)(F)Cl)n2c1	0.6%	0.5%

no.	GLA inh pH 4.5	Rango dissoc inh
11	x	2.8%
12	x	-4.8%
13	x	-0.4%
14	-14.3	0.4%
15	0.4	5.8%
16	x	6.6%
17	1.4	-5.2%
18	x	-1.0%
19	x	-9.5%
20	1.1	6.9%

Continued:
no.	SMILES	Rango-impB inh	miR-21 FLuc
21	Cc1ccc(-c2nn(Cc3ccccc3)cc2/C=C/C(=O)O)cc1C	-1.0%	-5.1%
22	O=C(Cn1c2ccc(F)cc2c2nc3n(c(=O)c21)CCS3)Nc1ccccc1F	x	-11.7%
23	O=C(Nc1nnc(-c2ccncc2)o1)c1ccc(Br)s1	-4.9%	-2.7%
24	O=C(/C=C1\SC(=O)NC1=O)Nc1ccc(F)cc1	3.6%	-7.6%
25	Cn1c(SCC(=O)Nc2cccnc2Cl)nc2ccccc21	0.2%	x
26	Cc1ccc(C)c(NC(=S)NNC(=O)c2csc(C(C)C)c2)c1	0.0%	-52.3%
27	COc1ccc(CCNS(=O)(=O)c2cn(C)nc2C)cc1OC	3.1%	-0.8%
28	CCNc1nc(OC)nc(Oc2ccc(=O)n(-c3ccccc3)n2)n1	0.0%	-14.5%
29	Cc1ccc(SCCC(=O)Nc2cccnc2)cc1	0.1%	-9.2%
30	COc1ccccc1/C=N/NC(=O)c1ccc(Cn2nc([N+](=O)[O-])cc2C)cc1	2.6%	0.3%

no.	GLA inh pH 4.5	Rango dissoc inh
21	-6.2	1.1%
22	10.9	x
23	1.5	0.9%
24	-7.9	-25.0%
25	x	2.7%
26	-15.2	0.8%
27	x	-4.2%
28	-12.4	-4.0%
29	9.5	3.7%
30	1.9	-1.1%

4 consecutive entries from above, for reference:
no.	SMILES	Rango-impB inh	miR-21 FLuc
21	Cc1ccc(-c2nn(Cc3ccccc3)cc2/C=C/C(=O)O)cc1C	-1.0%	-5.1%
22	O=C(Cn1c2ccc(F)cc2c2nc3n(c(=O)c21)CCS3)Nc1ccccc1F	x	-11.7%
23	O=C(Nc1nnc(-c2ccncc2)o1)c1ccc(Br)s1	-4.9%	-2.7%
24	O=C(/C=C1\SC(=O)NC1=O)Nc1ccc(F)cc1	3.6%	-7.6%

no.	GLA inh pH 4.5	Rango dissoc inh
21	-6.2	1.1%
22	10.9	x
23	1.5	0.9%
24	-7.9	-25.0%

Going on with the list.
no.	SMILES	Rango-impB inh	miR-21 FLuc
31	COC(=O)c1cc(C(=O)NCC2CCCCC2)cc([N+](=O)[O-])c1	-0.2%	0.4%
32	O=C(Nc1ccncc1)c1ccc(NS(=O)(=O)c2ccc3[nH]c(=O)[nH]c3c2)cc1	0.0%	-4.5%
33	O=C1C2C3C=CC(C2C(=O)N1C1CCCCC1)C1C(=O)N(C2CCCCC2)C(=O)C31 (centres undefined)	u	-0.1%
34	CCN1CCN(C(=O)C(C)Nc2ccc(OC)cc2OC)CC1 (centres undefined)	-0.4%	-1.3%
35	O=C(Nc1cccc(C(=O)O)c1)/C(=C/c1ccccc1)NC(=O)c1cccc(Br)c1	-1.1%	x
36	O=C(NCCCN1CCN(c2ccccc2F)CC1)C1CCC(=O)N1C1CCCCC1 (centres undefined)	-1.2%	-5.8%
37	O=C(O)c1cccc(NC(=O)c2ccc(Cl)c(S(=O)(=O)N3CCCCCC3)c2)c1	0.8%	-32.5%
38	O=C(CCCO)CCCCCCCCC[C@H]1N[C@H](CO)[C@@H](O)[C@@H]1O	-1.2%	-4.3%
39	CN(Cc1ccc(Cl)cc1)C(=O)c1ccc(S(=O)(=O)NCc2ccco2)cc1	-1.3%	x
40	CCC(=O)Nc1ccc(S(=O)(=O)NCC2CCCO2)cc1 (centres undefined)	0.4%	-0.1%

no.	GLA inh pH 4.5	Rango dissoc inh
31	x	10.8%
32	x	8.4%
33	4.1	0.7%
34	-3.5	-3.9%
35	x	-11.6%
36	3.8	-5.0%
37	1.2[21.1 µM]	41.8%
38	2.1	5.6%
39	x	-1.6%
40	7.9	2.8%

The results go on.
no.	SMILES	Rango-impB inh	miR-21 FLuc
41	Cc1cc2[nH]cnc2c([N+](=O)[O-])c1C	0.6%	-15.5%
42	CC1CC(CCN)(c2ccccc2)C(C)CN1C (centres undefined)	-1.0%	-6.2%
43	CCOc1ccc(C(=O)Nc2cccc(-n3cnnn3)c2)cc1OCC	0.3%	4.4%
44	Cc1cc2occ(CC(=O)N(C)CC(=O)Nc3c(C)cccc3C)c2cc1C	2.2%	x
45	Cc1ccc(C)c(SCC(=O)NC(=O)NC2CCCC2)c1	-0.4%	x
46	N#Cc1ccc(C23CC4(C2)[C@H](CN(Cc2ccc(C(F)(F)F)cc2)[C@@H]4c2ccccc2)C3c2ccccc2)cc1 (some centres undefined)	2.8%	-4.2%
47	Cc1cccc(NC(=O)c2cccc(S(=O)(=O)Nc3ccccc3C(=O)O)c2)c1	-2.1%	-3.1%
48	CCCn1c(SCC(=O)Nc2cccc(S(=O)(=O)NC3=NCCCCC3)c2)nc2ccccc2c1=O	3.2%	9.3%
49	Cc1nc(C(=O)NNC(=O)c2ccc(Cl)cc2)cs1	-3.8%	7.6%
50	Cc1cc(NC(=O)Cn2cnc3c2c(=O)n(C)c(=O)n3C)n(-c2ccccc2)n1	9.0%	-0.2%

no.	GLA inh pH 4.5	Rango dissoc inh
41	-3.5	-12.2%
42	-3.1	-19.6%
43	x	-11.5%
44	x	-12.2%
45	x	13.2%
46	3.8&1.1	2.7%
47	x	-16.4%
48	-8.6	0.2%
49	0.8	10.5%
50	-4.4	-2.9%

(more compounds)
no.	SMILES	Rango-impB inh	miR-21 FLuc
51	NC(=S)N(c1ccccc1)c1ccccc1	0.6%	6.6%
52	Cc1c(C(=O)NC(c2ccccn2)C(F)(F)F)oc2c(F)cccc12 (centres undefined)	-3.7%	0.4%
53	O=C(COC(=O)c1cccnc1Cl)Nc1ccc2c(c1)OCO2	5.7%	-3.2%
54	CC(C)Oc1cccc(C(=O)C2CCCN(S(=O)(=O)C(C)C)C2)c1 (centres undefined)	-5.1%	-11.0%
55	COc1cc(CCC(=O)OCC(=O)Nc2ccc(Br)cc2F)cc(OC)c1OC	-1.0%	-1.5%
56	COc1cccc2cc(C(=O)C3=C(O)C(=O)N(Cc4ccco4)C3c3cccnc3)oc12 (centres undefined)	u	-2.0%
57	O=C(c1cccc(Cl)c1)c1nn(-c2ccccc2)c(=O)cc1C(F)(F)F	1.3%	u
58	CCn1c(-c2ccc([N+](=O)[O-])cc2)n[nH]c1=S	1.9%	-2.0%
59	CCOC(=O)Cc1nnc(NC(=O)COc2ccc(F)cc2)s1	-3.6%	-1.9%
60	CCOc1ccc(S(=O)(=O)N(C)CC(=O)NCc2ccco2)cc1	4.5%	-0.6%

no.	GLA inh pH 4.5	Rango dissoc inh
51	7.9	-10.7%
52	x	19.7%
53	-7.3	-6.8%
54	4.6	3.6%
55	x	-16.5%
56	-5.5	-23.5%
57	-0.7	-0.5%
58	2.6	-8.1%
59	1.5	-14.1%
60	x	8.8%

The list goes on.
no.	SMILES	Rango-impB inh	miR-21 FLuc
61	CCCCNC(=O)c1cc2c(=O)n3cccc(C)c3nc2n(Cc2ccccc2)c1=N	u	-0.1%
62	CCOC(=O)CCSc1nc(C)c2cc(C)c(C)cc2n1	7.8%	-43.5%
63	COC(=O)c1cc2sccc2n1CC(=O)Nc1cc(OC)cc(OC)c1	0.7%	-29.9%
64	CCOC(=O)NCCc1c(C)nc2c(c(C)nn2C(C)(C)C)c1C	-0.2%	16.1%
65	O=C(CCn1c(=S)[nH]c2cc3c(cc2c1=O)OCO3)NCc1ccccc1Cl	1.0%	-1.6%
66	Cc1ccc(S(=O)(=O)C(C#N)c2nc3ccccc3nc2OCCO)cc1 (centres undefined)	u	3.8%
67	COC(=O)C1=C(C)N(Cc2ccccc2)C(=S)N[C@H]1c1ccc(Br)cc1	1.6%	14.4%
68	Cc1onc(-c2ccccc2)c1NC(=O)N(CCC(=O)O)Cc1ccccc1	4.7%	0.7%
69	N/C(=N\N=C\c1cccs1)SC1CC(=O)N(c2cccc([N+](=O)[O-])c2)C1=O (centres undefined)	-0.4%	-1.6%
70	COc1ccccc1N1CCN(C2=CC(=O)CCC2)CC1	-0.1%	-2.9%
71	CN(C)S(=O)(=O)c1cccc(NC(=O)CN2C(=O)NC(CCc3ccccc3)C2=O)c1 (centres undefined)	-3.0%	-11.9%
72	CCOc1ccccc1NS(=O)(=O)c1ccc(OC)c(OC)c1	-1.2%	-0.8%
73	COc1ccc(NCCc2ccccn2)cc1	-2.3%	-44.8%

no.	GLA inh pH 4.5	Rango dissoc inh
61	-1.8	u
62	-16.8	21.6%
63	3.9	-9.5%
64	0.4	14.9%
65	x	-2.7%
66	-2.5	u
67	x	-7.9%
68	-2.8	-4.7%
69	-8.6	-11.9%
70	0.2	-15.8%
71	-2.2	-11.5%
72	-2.1	1.7%
73	x	0.3%
